RVFV N-RNA FP: RVFV nucleocapsid-RNA interaction inhibition; P21700; % bound, % (concentration not given with the values); 0.1% of 20,000 active; RVFV N-RNA binding, fluorescence polarization; active compounds read low;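 active means between 0 and 58% in either replicate with normal brightness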;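 further: 100 nL library stock added to about 12 µL; 100% = protein and probe without compound and 0% = probe alone; numbers are from one replicate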
Target sequence (P21700 whole entry, looked up): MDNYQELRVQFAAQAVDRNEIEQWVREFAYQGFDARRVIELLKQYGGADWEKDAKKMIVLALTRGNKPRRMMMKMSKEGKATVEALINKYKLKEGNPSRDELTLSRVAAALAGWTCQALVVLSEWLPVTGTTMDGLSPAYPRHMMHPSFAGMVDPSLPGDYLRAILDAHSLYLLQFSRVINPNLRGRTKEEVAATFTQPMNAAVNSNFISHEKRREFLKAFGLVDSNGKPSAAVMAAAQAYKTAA
An asterisk follows results filed as active; & = joins results of further samples. These rows are one share of the data, so the mix of outcomes need not match the whole.

Molecule | RVFV N-RNA FP
O=C(/C=C/c1ccccc1)N1CCCc2ccccc21 | 95
FC(F)(F)c1cc(-c2ccc(-c3ccn[nH]3)o2)cc(C(F)(F)F)c1 | 99
COc1ccc(-c2nn(CCC#N)cc2/C=N\NC(=O)c2ccccc2)cc1 | 96
CC(=O)Oc1ccccc1C(=O)O | 93&94
O=C(NCc1ccc2c(c1)CCO2)c1cc(F)cc2c1OCOC2 | 101
CS(=O)(=O)N1CCC2(CC1)OCCN2S(=O)(=O)c1ccccc1 | 94
CSc1cc(/C=N/O)c(SC)s1 | 98
Oc1ccc2n[nH]nc2c1 | 103
Cc1cc(O)cc(O)c1C(=O)Cc1cscn1 | 98
CS(=O)(=O)NC(C(=O)O)c1ccccc1 (stereo unspecified) | 95
CC(=O)N(C(C)=O)c1ncnc2sc3c(c12)CCCC3 | 86
Cc1c(NC(=O)CSc2nnc(Cc3ccccc3)o2)c(=O)n(-c2ccccc2)n1C | 94
N#CC1=C(N)N=C(SCc2ccccc2)C(C(N)=O)C12CCCCC2 (stereo unspecified) | 93
Cc1nc2cc(Nc3ccncc3)ccc2s1 | 89
COc1ccccc1/C=C/CN1CCN(Cc2ccccc2)CC1 | 97
CC1(C)C(c2ccccc2)=[N+]([O-])CN1O | 93

A second format for some results above:
> COc1ccccc1/C=C/CN1CCN(Cc2ccccc2)CC1
  RVFV N-RNA FP: 97

> N#CC1=C(N)N=C(SCc2ccccc2)C(C(N)=O)C12CCCCC2 (stereo unspecified)
  RVFV N-RNA FP: 93

> Cc1nc2cc(Nc3ccncc3)ccc2s1
  RVFV N-RNA FP: 89

> Cc1c(NC(=O)CSc2nnc(Cc3ccccc3)o2)c(=O)n(-c2ccccc2)n1C
  RVFV N-RNA FP: 94

The list goes on.
Molecule | RVFV N-RNA FP
CCCc1ccc(C(=O)N2CCOCC2)cc1 | 94
O=C(ON1C(=O)c2ccccc2C1=O)c1ccc(NC(=O)c2ccco2)cc1 | 91
CCCn1c(SCC(=O)NCCc2ccccc2)nc2c(oc3ccccc32)c1=O | 94
Cc1nc(NCc2ccco2)[nH]c(=O)c1CCC(C)C | 92
CC(C)S(=O)(=O)c1nc2ccccc2n1Cc1ccccc1 | 96
CCc1c(C)nc(SCC(=O)N(CC)CC)c(C#N)c1C | 100
O=C(c1cc(-c2ccccc2)on1)N(Cc1ccccc1)c1ccccc1 | 101
CCC(=O)Nc1cc2c3c(c1)C(C)C(=O)N3CCC2 (stereo unspecified) | 99
Fc1ccccc1CSc1nnc2ccc(-c3ccco3)nn12 | 86
COc1nc2ccccc2nc1CCC(=O)N1CCCC1 | 95
CCOc1cc(CNc2ccc3c(c2)CCC3)ccc1O | 101
Cc1onc(-c2c(F)cccc2Cl)c1-c1nc(-c2ccccc2)no1 | 95
CSc1ccc(C2OC(=O)C(=Cc3ccc(C)o3)C(=O)O2)cc1 (stereo unspecified) | 93
NC(=O)CSc1ccc2ccccc2c1 | 91
Cc1ccc(-n2nc3c(c2NC(=O)COc2ccc(Cl)cc2Cl)CS(=O)C3)cc1 (stereo unspecified) | 91
CCOCCC(=O)N1CCCCC1CC (stereo unspecified) | 91
O=S(=O)(NNc1ncnc2sccc12)c1ccc(Cl)cc1 | 98
C=C(C)COc1ccc2c(CCCC)cc(=O)oc2c1 | 90
Cn1c(=O)c2c(SCC(=O)Nc3nccs3)ccnc2n(C)c1=O | 94
CN1CCN(NC(=O)COc2ccc(-c3ccccc3)cc2)CC1 | 101
O=C(Nc1ccccc1C(=O)N1CCCCC1)C1CCCCC1 | 96
CCOP(=S)(OCC)Oc1ccc2c(C)c(Cl)c(=O)oc2c1 | 100
CCn1nnnc1SCCSc1nnnn1CC | 88
CCc1nc2cc(Cl)c(Cl)cc2nc1CC | 91
CCOc1ccc(OCC)c(CC(C#N)C(=O)OC)c1 (stereo unspecified) | 89
CCCC12CN3CC(CCC)(CN(C1)C3c1ccc3c(c1)OCO3)C2=O (stereo unspecified) | 97
OC1(C(F)(F)F)CC(c2cc3ccccc3o2)=NN1 (stereo unspecified) | 95
O=C(CSc1nccn1-c1ccc(Cl)cc1)NCc1ccco1 | 87
Cc1ccc(C(=O)NC(=O)CSc2nnnn2-c2ccccc2)cc1 | 95
S=C(Nc1ccccc1)N1N=C(c2cccs2)CC1c1cccs1 (stereo unspecified) | 94
O/N=C/c1cn(CC(O)COc2cccc3cccnc23)c2ccccc12 (stereo unspecified) | 97
OCCN(Cc1ccccc1)CC1CC2C=CC1C2 (stereo unspecified) | 103

Not a retest: 4 of the compounds above.
Molecule | RVFV N-RNA FP
O=C(CSc1nccn1-c1ccc(Cl)cc1)NCc1ccco1 | 87
Cc1ccc(C(=O)NC(=O)CSc2nnnn2-c2ccccc2)cc1 | 95
S=C(Nc1ccccc1)N1N=C(c2cccs2)CC1c1cccs1 (stereo unspecified) | 94
O/N=C/c1cn(CC(O)COc2cccc3cccnc23)c2ccccc12 (stereo unspecified) | 97

Going on with the list.
Molecule | RVFV N-RNA FP
Cc1cccc(OCOc2cccc(C)c2)c1 | 92
Cn1c(N=Nc2c(O)[nH]c(=O)[nH]c2=O)nc2c1c(=O)n(Cc1ccc(Cl)cc1)c(=O)n2C | 93
N=C1S/C(=C\c2ccc(-c3ccccc3F)o2)C(=O)N1c1ccc2c(c1)OCO2 | 101
CC(C)CNC(=S)Nc1ccccc1 | 100
O=C(COc1ccc(S(=O)(=O)N2CCOCC2)cc1)N1CCN(Cc2ccc3c(c2)OCO3)CC1 | 86
O=C(Cc1nc(O)cs1)c1ccccc1 | 92
CC(=O)NCCCS(=O)(=O)O | 98
C/C=C(\C)CN1CCN(Cc2ccccc2)CC1 | 101

Structures above containing fluorine, in the order listed:
Molecule | RVFV N-RNA FP
FC(F)(F)c1cc(-c2ccc(-c3ccn[nH]3)o2)cc(C(F)(F)F)c1 | 99
O=C(NCc1ccc2c(c1)CCO2)c1cc(F)cc2c1OCOC2 | 101
Fc1ccccc1CSc1nnc2ccc(-c3ccco3)nn12 | 86
Cc1onc(-c2c(F)cccc2Cl)c1-c1nc(-c2ccccc2)no1 | 95
OC1(C(F)(F)F)CC(c2cc3ccccc3o2)=NN1 (stereo unspecified) | 95
N=C1S/C(=C\c2ccc(-c3ccccc3F)o2)C(=O)N1c1ccc2c(c1)OCO2 | 101

Additional structures
compound | RVFV N-RNA FP
O=C(CC1COc2ccccc2O1)NC1CCCCC1 (stereo unspecified) | 101
O=C(Cn1cc(S(=O)(=O)Cc2ccccc2)c2ccccc21)Nc1nccs1 | 98
CC1CC(C)CN(c2ncnc3c2cnn3C)C1 (stereo unspecified) | 96
COC(=O)c1ccc(S(=O)(=O)NCCNc2ncc(Cl)cc2C(F)(F)F)n1C | 95
CC(C)(C)OC(=O)NCC12C=CC(O1)C1C(=O)N(Cc3ccccc3)C(=O)C12 (stereo unspecified) | 92
CSc1nc2cc(F)c(F)cc2n1C | 100
O=C1NNC(c2ccccc2)=N/C1=C\c1ccc(Cl)cc1 | 97
Cc1cc(C(F)(F)F)c(C(=O)O)cn1 | 98
C/C(=N\NC1=NCCCCC1)c1ccccc1 | 95
CC(=O)OC[C@H]1O[C@@H](NC(=S)NN)[C@H](OC(C)=O)[C@@H](OC(C)=O)[C@@H]1OC(C)=O | 87
COc1ccccc1NC(=O)c1c(C)oc2c1CCCC2 | 87
C/C(=N\NC(=O)c1ccoc1C)c1ccc(Cl)s1 | 85
Cn1c(Cc2nn(C)c(=O)c3ccccc23)nnc1SCc1ccc(Cl)cc1Cl | 94
COC(OC)c1[nH]c(=S)ncc1C(=O)O | 88
CC(C)C(=O)NCCc1c[nH]c2ccccc12 | 93
Cc1cc(NC(=O)Cn2c(=O)n(CC3CCC(C(=O)NC4CCCC4)CC3)c(=O)c3ccccc32)n[nH]1 (stereo unspecified) | 88
Cc1ccc(C)c(C(=O)NCC(C)C)c1 | 99
C[C@H](N[C@@H](CCc1ccccc1)C(=O)O)C(=O)N1Cc2ccccc2C[C@H]1C(=O)O | 100
Cc1cc(C(=O)Sc2ccc(Cl)cc2)nn1C(C)(C)C | 100
Cn1c(O)c(C=NC2CCCCCC2)c(=O)[nH]c1=S | 103
CCN(CC)C(=O)CSc1nnc(-c2cccnc2)n1-c1ccccc1 | 110
COc1ccc(OCNC(=O)Nc2nncs2)cc1 | 95
COC(=O)c1sc2ncccc2c1O | 95
O=C(NC(=S)Nc1ccccc1)c1ccc2nonc2c1 | 95
CSc1sc(C(=O)OC(C)C)c2c1C(=O)CC(C)(C)C2 | 94
COC(=O)C1=C(C)N(C(C)C)C(=O)C1(NC(=O)C1CCCCC1)C(F)(F)F (stereo unspecified) | 94
COCC(=O)Nc1c(C)cc(C)cc1C | 101
COC(=O)c1sccc1N/N=C1\C(=O)c2ccccc2N(C)S1(=O)=O | 106
O=C(COc1ccccc1)Nc1nc2cc3c(cc2s1)OCO3 | 97
CCc1c(C)sc(NC(=S)NCc2ccco2)c1C(=O)OC | 85
CCN1CCN(CC2=CCC3CC2C3(C)C)CC1 (stereo unspecified) | 94
NC(CP(=O)(O)O)C(=O)O (stereo unspecified) | 98
CCOC(=O)Cc1csc(NC(=O)CSc2nc(=O)[nH]c3c2CCC3)n1 | 98
O=C(O)C1C2C=CC(C2)C1C(=O)OCc1ccccc1 (stereo unspecified) | 91
O=C(O)c1cc(-n2c(-c3cnccn3)n[nH]c2=S)ccc1Cl | 92
C=CCNC(=O)c1cc(Br)cs1 | 91
CN(C)C(=O)CSc1nnc(C23CC4CC(CC(C4)C2)C3)o1 | 100
CCc1ccc(NC(=O)CN(C(=O)N2CCN(CC)CC2)S(=O)(=O)c2ccc(C)cc2)cc1 | 93
CC(=O)Oc1cnc2ccc(C)cc2c1 | 94
CC(C)C(=O)Nc1cccc(Cl)c1Cl | 114
CN1CC[C@@]23CCCC[C@@H]2[C@@H]1Cc1ccc(O)cc13 | 99
N#Cc1cccc(NC(=S)NC(=O)c2cccs2)c1 | 101
CCOc1ccc(NC(C)c2cc(Cl)ccc2O)cc1 (stereo unspecified) | 95
C[N+]1(C)C2CCC1CC(OC(=O)c1c[nH]c3ccccc13)C2 (stereo unspecified) | 90
CNC(=O)n1ccc(C(=O)N2CCCCC2)n1 | 101
CCOC(=O)c1cnc(O/N=C/c2ccc(F)cc2)nc1C(F)(F)F | 91
O=c1[nH]cnc2c1ncn2[C@H]1CC[C@@H](CO)O1 | 99&94
COc1ccc(OC)c(C(=O)c2ccc(C(=O)O)cc2)c1 | 96
CCCc1cc2c(=O)c(-c3ccc4c(c3)OCCO4)c(CC)oc2cc1O | 95
CCCCN1C(=O)c2ccc(C(=O)Nc3cccnc3)cc2C1=O | 97
Cc1nc(-c2cccc(NC(=O)c3ccco3)c2)cs1 | 95
Cc1cccc(-c2nc(C#N)c(N3CCCCC3)o2)c1 | 98
CNC(=O)COc1cccc2c(=O)[nH]ccc12 | 103
COc1cc(C=Nn2c(-c3ccc(C)cc3)n[nH]c2=S)ccc1OC(C)=O | 91
Cc1cccc(NC(=O)CSCc2n[nH]c(=O)[nH]2)c1C | 88
CCOC(=O)c1sc2nc(NC(=O)Cc3ccccc3)sc2c1C | 93
O=[N+]([O-])c1cccc2c(Br)[nH]nc12 | 97
COc1ccc(OC)c(S(=O)(=O)NC2CCCCNC2=O)c1 (stereo unspecified) | 106
O=C(NCC(O)c1ccccc1)Nc1cccc(C(F)(F)F)c1 (stereo unspecified) | 90
COc1ccc(S(=O)(=O)N(C)c2ccc(C(=O)N3CCN(c4ccccc4F)CC3)cc2)cc1OC | 94

Continued:
compound | RVFV N-RNA FP
Cc1ccccc1C(=O)NCCn1cc(SCC(=O)Nc2nccs2)c2ccccc21 | 92
CC(C)=CC(=O)Nc1ccc2c(c1)OCO2 | 88
CCCCCCCC/C=C\CCCCCCCC(=O)NCCO | 91
Cn1c(NNC(=O)C(c2ccccc2)c2ccccc2)cc(=O)n(C)c1=O | 88
NC[C@H]1O[C@H](O[C@H]2[C@H](O)[C@@H](O[C@H]3O[C@H](CO)[C@@H](O)[C@H](N)[C@H]3O)[C@H](N)C[C@@H]2N)[C@H](N)C[C@@H]1O | 99
NS(=O)(=O)c1ccc(NC(=O)CSCC(=O)O)cc1 | 98
N/C(=N\c1ncn[nH]1)N/N=C/c1c(Cl)cccc1Cl | 88
O=C(CSc1nnc(COc2ccccc2)o1)c1ccccc1 | 84
CCOC(=O)CN(C)Cc1ccc(OC)cc1OC | 104
C[C@]12C=CC(=O)C=C1CCC1C2[C@@H](O)C[C@@]2(C)C1CC[C@]2(O)C(=O)COP(=O)(O)O (stereo partly specified) | 100
COc1cccc(OC)c1COC(=O)Nc1c(-c2ccccc2Cl)noc1C | 95
Nc1cc(=O)[nH]c(SC/C=C/c2ccccc2)n1 | 98
O=c1nc(-c2ccccc2)cc(-c2ccc(Br)cc2)[nH]1 | 92
CCCCCCCCCCC/C=C\C(C)(C)/C=C\CCCC(=O)O | 88
CC(C)CN(CC(C)C)S(=O)(=O)c1cc(Cl)ccc1Cl | 93
CC(=O)NC1=NN(C(C)=O)C(c2ccco2)S1 (stereo unspecified) | 97
NNC(=O)CNC(=O)c1cccc2ccccc12 | 98
Cc1sc(NC(=O)CN2C(=O)CCC2=O)c(C(N)=O)c1C | 96
CC(C)(CO)Cc1cc(C(C)(C)C)c(O)c(C(C)(C)C)c1 | 93
O=C(O)C1Cc2[nH]cnc2C(c2ccc(F)cc2)N1 (stereo unspecified) | 98
CCc1ccc(N(Cc2cc(=O)n3ccccc3n2)C2=NC3CS(=O)(=O)CC3S2)cc1 (stereo unspecified) | 92
O=C(O)/C=C/C(=O)Nc1cccc(NC(=O)/C=C/C(=O)O)c1 | 95
O=C1c2ccccc2C(=O)N1CCc1nc(-c2cccnc2)no1 | 94
COc1ccccc1C(=O)NCc1ccccc1C | 95
COC(=O)Cn1c(=NC(=O)CSCC(=O)NC2CCCCC2)sc2cc(OC)ccc21 | 90
CSc1sc(C(=O)NN)cc1C#N | 93
CCn1c(SCC(=O)N2CCOCC2)nc2ccc(I)cc2c1=O | 104
O=c1[nH]nc(-c2ccccc2)o1 | 96
CCSc1nnc(CNC(=O)c2cccc(OC)c2)n1-c1ccccc1OC | 101
CCN(CC)C(=O)c1cc2ccccc2cc1O | 102
CN(C)CCN(C)C1Cc2ccccc2C1 | 91
CCC(=O)c1ccccc1OCCn1cnc2ccccc2c1=O | 95
O=C(CSc1ccccc1)Nc1nc2c(s1)CCCC2 | 100

Assay outcomes: PubChem BioAssay, ICCB-Longwood Screening Facility, Harvard Medical School
